# Compound activity as filed in PubChem.
# Cruzain Triton: qHTS Assay for Promiscuous and Specific Inhibitors of Cruzain (with detergent). hit rate 0.43% among 200,000. Cruzipain (Trypanosoma cruzi), P25779. Potency, µM, inactives show max response, negative = inhibition, actives largely listed as inhibitors. purified cruzain, Z-FR-AMC fluorescence, 0.01% Triton;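 further: plate controls were neutral wells for no effect and buffer without enzyme for full effect; nearly all actives have a fitted effect of over 40% in size; top concentration of the series not given in the record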
# Target sequence (P25779 123-467 limits assumed): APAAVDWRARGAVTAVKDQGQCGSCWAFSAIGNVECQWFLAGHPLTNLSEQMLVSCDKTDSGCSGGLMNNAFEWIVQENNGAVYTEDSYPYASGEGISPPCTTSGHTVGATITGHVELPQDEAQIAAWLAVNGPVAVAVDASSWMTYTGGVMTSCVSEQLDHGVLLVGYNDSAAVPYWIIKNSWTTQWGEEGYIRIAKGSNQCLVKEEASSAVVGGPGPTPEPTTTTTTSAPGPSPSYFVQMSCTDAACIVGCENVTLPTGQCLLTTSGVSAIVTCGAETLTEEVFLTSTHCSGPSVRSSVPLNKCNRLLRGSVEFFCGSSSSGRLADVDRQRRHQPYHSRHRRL
#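 Steps: dispense cruzain (1.5 nM final) in acetate buffer pH 5.5 with DTT and 0.01% Triton X-100; pin-transfer compounds; incubate 15 min RT; add Z-FR-AMC (2 uM final); read fluorescence every 30 s, using the 60 s intensity change.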
# Cruzain noTriton: qHTS Assay for Promiscuous and Specific Inhibitors of Cruzain (without detergent); Cruzipain (Trypanosoma cruzi), P25779; purified cruzain, Z-FR-AMC fluorescence, no detergent; Potency, µM, for inactives: max response, negative = inhibition, hits mostly inhibitors; hit rate 2.3% among 200,000;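 further: plate controls were enzyme without inhibitor for no effect and buffer without enzyme for full effect; nearly all actives have a fitted effect of over 40% in size; top concentration of the series not given in the record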
#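 Detergent-free condition (0.00005% Triton X-100) in acetate buffer pH 5.5 with DTT. 1.5 nM enzyme and compound were pre-mixed 15 min, then 2 uM Z-FR-AMC substrate added; reaction progress from fluorescence change between first and third reads (60 s).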
# MARV entry inh: qHTS for inhibitors of binding or entry into cells for Marburg Virus. hit rate 1.8% among 300,000. Marburg virus pseudotyped entry inhibition, cell reporter; control for the full effect not named in the record; about a third of the inactives were read at about 46 µM. Potency, µM (titrated, usually from 37.8 µM), inactives show at the highest dose activity change, negative = inhibition, most hits filed as inhibitors. AID 540276, 2011; active = well fitted inhibition curve with a large enough effect; inconclusive = small, poorly fitted or top-dose-only effect, or effect the other way; inactive = flat fitted curve, though single readings scatter; tested in HEK293 cells; about a fifth of its hits are not listed in these tables; further: on the % scale 0 is the no-effect control and ±100 the full control effect; luciferase read-out
# Lassa entry inh: qHTS for Inhibitors of binding or entry into cells for Lassa Virus; hit rate 1.2% among 300,000; Potency, µM (series often up to 37.9 µM), without a hit: top-dose activity change, negative = inhibition, hits mostly inhibitors; Lassa virus pseudotype entry inhibition, cell reporter; control for the full effect not named in the record; AID 540256, 2011; active means well fitted inhibition curve with a large enough effect; inconclusive means small, poorly fitted or top-dose-only effect, or effect the other way; inactive means flat fitted curve, though single readings scatter; tested in HEK293 cells; further: on the % scale 0 is the no-effect control and ±100 the full control effect; nearly all actives have a fitted effect of over 50% in size; luciferase read-out
# RE007 growth inh: qHTS Assay for Inhibitors of the HIV-1 protein Vpr; S. pombe RE007 Vpr strain, BacTiter-Glo ATP luminescence, 24 h; control for the full effect not named in the record; Potency, µM (series often up to 92.2 µM), for the others: at the highest dose activity change, negative = less growth; hit rate 0.21% among 360,000; active = well fitted falling curve with a large enough effect; inconclusive = small, poorly fitted or top-dose-only effect; inactive = no such curve, though single readings can be large or run the other way;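 further: on the % scale 0 is the no-effect control and ±100 the full control effect; nearly all actives have a fitted effect of over 50% in size; the assay follows cell death caused by Vpr and the record does not say whether a fall means rescue or toxicity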
#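 Fission yeast RE007 carrying one integrated HIV-1 vpr copy, seeded at OD 0.01 in PMG+AL medium with 23 nL pinned compound. Grown 24 h at 30 degrees; viability read by BacTiter-Glo luminescence after 5 min.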
# 2A StopGo: High Throughput Screening for Foot and Mouth Disease Virus Antivirals; hit rate 1.2% among 410,000; human cells with a luciferase reporter of 2A StopGo recoding; control for the full effect not named in the record; Potency, µM (top dose mostly 57.9 µM), inactives show top-dose signal change, negative = less light; AID 1159524, 2015; active = well fitted falling curve with a large enough effect; inconclusive = small, poorly fitted or top-dose-only effect; inactive = no such curve, though single readings can be large or run the other way; tested in HEK293T cells; further: on the % scale 0 is the no-effect control and ±100 the full control effect; nearly all actives have a fitted effect of over 45% in size; luciferase light after 4 h
# NS1 function inh: qHTS Assay for Inhibitors of Influenza NS1 Protein Function. Potency, µM (top dose mostly 46.1 µM), for inactives: at the top dose activity, positive = more growth. hit rate 0.4% among 270,000. S. cerevisiae slowed by influenza A NS1, growth recovery by OD600; active means well fitted rising curve with a large enough effect; inconclusive means small, poorly fitted or top-dose-only effect; inactive means no such curve, though single readings can be large or run the other way; further: nearly all actives have a fitted effect of over 50% in size
#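 In this qHTS, NS1 from influenza A is expressed in budding yeast, where it slows growth. Cells are switched from glucose to 2% galactose medium (pH 6.0, -URA), treated with compound, and growth recovery is read at OD600.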
# SARS PLP yeast: qHTS of Yeast-based Assay for SARS-CoV PLP; hit rate 0.19% among 330,000; Potency, µM (series often up to 32.9 µM), inactives show at the top dose activity, positive = growth rescue; S. cerevisiae expressing SARS-CoV PLpro, growth rescue; control for the full effect not named in the record; AID 485353, 2010; active means well fitted rising curve with a large enough effect; inconclusive means small, poorly fitted or top-dose-only effect; inactive means no such curve, though single readings can be large or run the other way; further: 0% is about no effect; nearly all actives have a fitted effect of over 55% in size; growth read by luminescence after 48 h
# * = called active by the depositor; ? = inconclusive; nt = not tested or not shown; & = joins results of further samples; [ ] = another dose, or the depositor's remark. Unless noted, the call rests on the fitted dose curve; in most records, active means well fitted curve in the direction sought with a large enough effect; inconclusive means small, poorly fitted or top-dose-only effect, or another doubt; inactive means no such curve, though single readings can be large; an effect the other way counts as inactive or inconclusive. Potency means the concentration at half of the fitted maximal effect.
SMILES,Cruzain Triton,Cruzain noTriton,MARV entry inh,Lassa entry inh,RE007 growth inh,2A StopGo,NS1 function inh,SARS PLP yeast
CCc1cccc(CC)c1C(O)c1cccnc1 (stereo not given),1.6%,0.1%,-24.3%,4.1%,-2.6%,-14.2%,-8.4%,20.3%
CC(C)(C)c1ccc(N/N=C(\C#N)S(=O)(=O)C(C)(C)C)cc1,nt,nt,10µM*,?,4.6%,-22.7%,nt,1.7%
O=C(c1ccc(=O)oc1)N1CCCc2ccccc21,-6.9%,-7.8%,6.3%,23.3%,0.0%,?,?,2.1%
CC(=O)Nc1ccc(C(=O)CSc2nnc(C)o2)cc1,-4.6%,-2.1%,18.7%,-1.3%,3.8%,-1.0%,2.4%,0.3%
O=C(O)c1cccc(CN2C(=O)S/C(=C/c3cccc([N+](=O)[O-])c3)C2=O)c1,nt,nt,nt,nt,-3.4%,-8.5%,0.9%,3.3%
O=C(Nc1cccnc1Cl)c1cc(-c2ccc(Br)cc2)on1,nt,nt,-3.0%[46.1 µM],13.0%,-10.5%,22.1%,0.7%,-3.1%
CC1CCN(C(=O)COC(=O)c2cc3ccccc3cc2O)CC1,-4.5%,-6.4%,-0.4%,-1.2%,-22.4%,-12.5%,-67.6%,-6.2%
COC(=O)c1ccc(COc2cc(O)c3c(c2)OC(C)(C)CC3=O)cc1,-3.6%,2.9%,-9.5%,-6.2%,-9.5%,-20.7%,-47.6%,-1.2%
Cc1cc(NS(=O)(=O)c2ccccc2)c([N+](=O)[O-])cc1C,-5.9%,5.5%,9.0%,5.7%,-1.2%,-0.1%,-11.9%,-15.7%
Cc1ccccc1/C=N/N1CCN(c2ccccc2)CC1,-4.0%,-4.2%,?,19.9%,-9.3%,18.9%,10.9%,17.3%
COc1ccc(-n2cnnc2SCC(=O)Nc2cc(S(=O)(=O)N3CCCCC3)ccc2C)cc1,-3.7%,28.1%,1.8%,?,3.3%,0.0%,7.7%,-1.9%
CCOC(=O)N1CCN(C(=O)c2ccccc2NC(=O)c2ccc(OC)cc2)CC1,1.5%,-14.1%,-15.6%,-10.9%,-4.4%,-8.9%,-2.7%,4.4%
CC(=O)c1cc(-c2ccccc2)n(CC(=O)NCc2cccs2)c1C,-0.7%,-11.9%,-1.4%,11.8%,-4.2%,?,10.7%,-4.0%
CN1CCN(c2nc(-c3ccc(Cl)cc3)nc3ccccc23)CC1,nt,nt,?,?,4.3%,-24.5%,0.3%,1.1%
CCN1CCN(c2ccc(NC(=O)c3cccnc3)cc2Cl)CC1,-1.0%,1.1%,-4.5%,-4.3%,-6.4%,12.7%,-7.9%,5.7%
CCOC(=O)N1CCC(Nc2c(OCC)c(=O)c2=O)CC1,1.9%,-9.7%,nt,nt,-3.0%,-9.2%,1.0%,4.1%
O=C(NCC(c1cccnc1)N1CCOCC1)C(=O)Nc1ccc(F)cc1 (stereo not given),-12.3%,?,nt,-20.6%[46.1 µM],nt,19.1%,nt,nt
CC(C)(C)CC(=O)Nc1ccc(Nc2ccccc2)cc1,2.2%,4.4%,1.9%&1.9%,13.9%,-7.3%,45.2%[activator],-8.4%,-3.1%
O=C(Cc1ccc(S(=O)(=O)N2CCOCC2)s1)N1CCN(S(=O)(=O)c2cccc(Cl)c2)CC1,nt,nt,-0.6%,?,-5.4%,?,nt,0.4%
COC(=O)c1cc(Cl)c(NS(=O)(=O)c2ccccc2)cc1OC,-8.1%,-14.2%,-4.0%,-0.5%,-6.3%,13.3%,-7.6%,3.8%
CNC(=O)C1CCC(Cn2c(=O)c3sccc3n(CC(=O)N3CCCC3)c2=O)CC1 (stereo not given),-0.1%,-2.1%,nt,-4.7%[46.1 µM],nt,-1.1%,nt,nt
COc1ccc(OCCOC(=O)CNC(=O)c2ccc(Cl)cc2Cl)cc1,nt,nt,18.7%,0.8%[46.1 µM],-10.6%,1.8%,nt,0.8%
O=C(C[n+]1ccccc1)Nc1nc2ccccc2s1,-2.7%,-3.6%,20.1%,?,-8.0%,0.2%,-0.8%,2.9%
COc1ccc(-c2nsc(C(=O)N(c3ccc(F)cc3)C(C(=O)NC3CCCC3)c3ccc(OC)cc3)c2N)cc1 (stereo not given),0.9%,?,?,1.2%,12.1%,-0.5%,6.4%,-1.1%
CC(C)(C)c1ccc(COC(=O)CNC(=O)CNC(=O)Cc2ccccc2)cc1,4.7%,7.3%,13.9%,-20.4%,9.1%,nt,20.8%,-4.0%
Cc1cc(N2CCN(C/C=C/c3ccccc3)CC2)n2ncnc2n1,0.4%,-3.3%,?,?,3.9%,nt,-7.9%,9.7%
COc1ccccc1NC(=O)CSc1nnnn1-c1ccc(C(=O)O)cc1,nt,nt,?,13.8%,4.4%,-2.4%,1.3%,-1.7%
O=C(COC(=O)CCCNC(=O)c1ccc(Cl)cc1)NCc1ccccc1Cl,-5.1%,19.1%,8.8%,-7.2%,12.7%,15.9%,-2.2%,-7.1%
CC(C)c1nnc(NC(=O)c2cccnc2)s1,1.8%,-5.1%,27.1%,?,-8.0%,61.8%[activator],-4.6%,7.0%
CC(C)C[C@H](NC(=O)N1c2ccccc2NC(=O)[C@@H]1C(C)C)C(=O)N[C@@H](Cc1ccccc1)C(=O)O,nt,nt,nt,nt,-9.3%,-18.5%,11.6%,-2.5%
CCOc1ccc(CC(=O)Nc2cccc(-c3nc4cccnc4s3)c2C)cc1,-4.6%,11.9%,-27.0%[46.1 µM],-30.0%[46.1 µM],nt,-5.0%,nt,nt
Cc1onc(-c2ccccc2)c1C(=O)Nc1nnc(CC(C)C)s1,nt,nt,0.0%[46.1 µM],-6.9%[46.1 µM],-13.2%,-2.1%,-1.3%,1.3%
CCCC1=NN2C(=N)/C(=C\c3cc(C)n(-c4cc(C)cc(C)c4)c3C)C(=O)N=C2S1,-7.1%,?,-2.8%,2.2%,-0.7%,-19.1%,?,0.3%
Cc1cc(C)c(C#N)c(SCc2nc3ccccc3c(=O)[nH]2)n1,nt,nt,1.12µM*,3.16µM*,-1.3%,21.2%,nt,-0.2%
CS(=O)(=O)NCCSCc1ccc(Cl)cc1,-1.9%,1.4%,2.1%,-6.6%,10.0%,-12.9%,2.8%,6.1%
CCOC(=O)c1ccccc1NC(=O)NCc1c(-n2cccc2)sc2c1CCCC2,-6.7%,-17.4%,9.3%[46.1 µM],-6.2%[46.1 µM],nt,-7.7%,nt,nt
CC1=CC(=C(C#N)c2nc3ccccc3s2)C=C(C)N1Cc1ccco1,-0.5%,?,?,-28.5%,-10.8%,nt,-2.9%,8.8%
c1ccc(CN(Cc2ccco2)C(c2ccncc2)c2nnnn2C2CCCC2)cc1 (stereo not given),-3.8%,6.1%,-25.6%,-27.9%,-16.3%,nt,?,-4.7%
CCN(C(=O)c1cc2c(=O)[nH]c3ccc(C)cc3c2s1)c1ccccc1C,nt,nt,-2.7%[46.1 µM],3.7%,0.5%,-26.3%,0.8%,1.7%
Nc1ccc2c(c1)C(=Cc1cccnc1)c1ccccc1-2,nt,nt,-9.9%,20.1%,1.7%,9.6%,nt,nt
N#Cc1cc2c(=O)n3ccccc3nc2n(-c2nnc(SCc3ccccc3F)s2)c1=O,-0.8%,3.7%,?,-9.8%[46.1 µM],nt,1.9%,nt,nt
CCOc1ccc(C)cc1S(=O)(=O)Nc1cccnc1,nt,nt,-0.7%,1.3%,22.3%,92.0%[activator],?,nt
Cc1cc(C)cc(N(CC(=O)NCc2ccccc2Cl)S(=O)(=O)c2c(C)noc2C)c1,-7.1%,-0.6%,?,-18.9%[46.1 µM],nt,-12.6%,nt,nt
CCc1ccccc1NC(=O)Nc1ccc2c(c1)N(CC)C(=O)c1ccccc1S2,-2.6%,-6.0%,-19.1%[46.1 µM],3.0%[46.1 µM],nt,-10.2%,nt,nt
CCCCn1c(N)c(N(CCOC)C(=O)CN(C)S(=O)(=O)c2ccc(Cl)cc2)c(=O)[nH]c1=O,nt,nt,-11.2%,-14.3%,27.1%,-12.8%,-3.9%,-2.0%
Cc1nc2ccccc2c(=O)n1/N=C/C=C/c1ccccc1,nt,nt,9.7%,?,-1.1%,0.9%,-3.9%,-0.6%
C=CCn1c(C)c(C(C)=O)c(N2CCCC2)nc1=S,5.4%,-4.5%,?,4.8%,-0.3%,-13.7%,-6.4%,-5.5%
Cc1ccc(NC(=O)CN2C(=O)NC(C)(c3ccccc3)C2=O)c(C)c1 (stereo not given),nt,nt,-29.1%[46.1 µM],3.1%,-9.8%,-2.7%,3.0%,0.5%
COC(=O)c1cc(NC2c3ccccc3C(=O)N2c2ccc(Cl)cn2)cc(C(=O)OC)c1 (stereo not given),-7.4%,11.3%,nt,nt,1.9%,14.7%,-70.2%,26.5%
COC(=O)c1[nH]c(C)c(/C(O)=C2\C(=O)C(=O)N(CCN(C)C)C2c2ccc(C)o2)c1C (stereo not given),-3.3%,-4.7%,-4.3%,-1.1%,-10.6%,-10.9%,-7.2%,3.9%
Cc1ccc(C(=O)NCCN(C)C)c(C)c1,1.9%,-3.7%,3.5%,?,-11.1%,6.2%,0.9%,-6.1%
CN(C(=O)c1ccccc1C(=O)c1ccccc1)C1CCS(=O)(=O)C1 (stereo not given),1.1%,-4.2%,15.2%,-16.0%,0.2%,3.3%,3.4%,6.7%
CN1CC(=O)N/C1=N\C(=O)Nc1ccc2c(c1)N(C)C(=O)CS2,2.0%,-6.1%,-2.9%,1.8%,-9.4%,nt,?,9.2%

# Compounds as they come; overall some 4.7% were active at least once.
